Source: PubChem BioAssay
AF4-AF9 inh – MLL-AF4/AF9 protein interaction inhibition | AlphaScreen, biotin-AF4 peptide binding to FLAG-AF9 | 0.47% of 350,000 active | AID 651704 | P42568 | inhibition, % at 10 µM;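 active means every replicate reaching a set inhibition limit, whatever the replicate mean, cut at about 25% in these data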;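 further: 0% = plate neutral control median and 100% = total signal loss; the record names both 10 and 1 µM as test concentration; the first replicate is given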
Target sequence (P42568 whole entry, looked up): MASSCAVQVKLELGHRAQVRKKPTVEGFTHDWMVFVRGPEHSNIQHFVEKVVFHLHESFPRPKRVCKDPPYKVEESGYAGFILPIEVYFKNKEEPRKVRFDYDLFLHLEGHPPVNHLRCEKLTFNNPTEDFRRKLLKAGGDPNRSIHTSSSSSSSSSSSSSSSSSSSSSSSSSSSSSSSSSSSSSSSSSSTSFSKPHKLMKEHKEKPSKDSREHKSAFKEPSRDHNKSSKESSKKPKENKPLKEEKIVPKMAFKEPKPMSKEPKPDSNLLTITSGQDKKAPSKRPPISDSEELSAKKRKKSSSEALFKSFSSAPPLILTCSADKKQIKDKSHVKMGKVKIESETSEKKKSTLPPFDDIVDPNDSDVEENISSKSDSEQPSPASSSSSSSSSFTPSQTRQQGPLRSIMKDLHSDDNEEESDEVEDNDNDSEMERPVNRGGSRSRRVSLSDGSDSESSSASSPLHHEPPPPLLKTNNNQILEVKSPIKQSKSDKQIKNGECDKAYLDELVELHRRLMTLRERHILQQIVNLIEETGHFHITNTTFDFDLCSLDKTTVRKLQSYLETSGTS
Ecoli rRNA inh – selective bacterial rRNA inhibition in E. coli; 1.6% of 350,000 active; E. coli WT GFP vs humanized-ribosome RFP mutants, fluorescence, 24 h; hits give low values; DMSO median 0, no signal -100; GFP signal change (wild-type ribosome), % (no concentration beside the values);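 active means significant combined selectivity score with lowered wild-type GFP, culture density cut under 30%, mutant RFP and density less affected; inactive means any of these conditions unmet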; further: one replicate is shown; some compounds called inactive have numbers as strong as hits
Ecoli rRNA inh OD600 – further read-out of Ecoli rRNA inh, marked with its call; OD600 change, %; measured here: OD600 growth;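 optical density of the mix in the first replicate; 0 = DMSO median and -100 = no signal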
Ecoli rRNA inh RFP – also measured in Ecoli rRNA inh; calls as there; RFP signal change, %; measured here: RFP humanized mutant strains;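 first replicate; 0 = DMSO median and -100 = no signal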
* marks the source's active call; other numbers are inactive results; & = joins results of further samples.

cpd	smiles	AF4-AF9 inh	Ecoli rRNA inh
1	COc1ccc(CN(C)C[C@@H]2OCCCC[C@H](C)Oc3ccc(NC(=O)c4ccccc4)cc3C(=O)N([C@H](C)CO)C[C@@H]2C)cc1	4.1	-1
2	CC=Cc1ccc2n(c1=O)C[C@@H]1[C@@H](CO)[C@H](C(=O)NCCN3CCCCC3)N(C(C)=O)[C@H]21 (mixture of isomers)	-24	3
3	O=C(C[C@@H]1C[C@H]2c3cc(NC(=O)c4cccnc4)ccc3O[C@H]2[C@@H](CO)O1)NCc1ccccc1F	0.0	1
4	COc1ccc2c3c([nH]c2c1)[C@H](CO)N(C(=O)NC(C)C)CC31CCN(C(=O)c2cnccn2)CC1	-3.5	5
5	CC(C)NC(=O)N(C)C[C@H]1Oc2cc(-c3cccnc3)ccc2S(=O)(=O)N([C@@H](C)CO)C[C@H]1C	2.3	0
6	COc1cccc(C#Cc2ccc([C@H]3[C@H](CO)N4C(=O)CN(C(C)=O)C[C@@H]34)cc2)c1	-4.6	3
7	COc1cc(CN2CC3(CCN(C(=O)c4cccnc4)CC3)c3c([nH]c4cc(OC)ccc34)[C@@H]2CO)cc(OC)c1	-0.9	-3
8	C[C@@H]1CN([C@@H](C)CO)C(=O)Cc2cc(NC(=O)Cc3ccccc3)ccc2O[C@@H]1CN(C)Cc1ccc(C(=O)O)cc1	5.9	4
9	O=C(C[C@@H]1C=C[C@@H](NC(=O)c2ccncc2)[C@@H](CO)O1)Nc1ccc(-c2ccccc2)cc1	-8.5	-4
10	CCCC#Cc1ccc([C@H]2[C@@H](CO)N3C(=O)CN(C(=O)Cc4cccnc4)C[C@@H]23)cc1	-1.0	7
11	C[C@H]1CN([C@@H](C)CO)C(=O)c2cc(NC(=O)CCCCCC(=O)Nc3ccccc3N)ccc2O[C@H]1CN(C)Cc1ccc(-c2ccccc2)cc1	-0.4	4
12	O=C(C[C@H]1CC[C@H](NC(=O)Nc2ccccc2F)[C@H](CO)O1)NCc1ccc(-c2ccccc2)cc1	-7.4	-20*
13	CN(C)CC#Cc1ccc([C@@H]2[C@@H](CO)N3C(=O)CN(C(=O)c4cccc(F)c4)C[C@H]23)cc1	-1.2	2
14	CCCNC(=O)N1[C@@H]2CNC[C@H]1C2c1ccc(/C=C/c2ccccc2)cc1 (stereo partly specified)	16&6.1	0&0
15	COc1ccccc1C#Cc1ccc2c(c1)[C@@H]1[C@@H](CCN1C(=O)c1ccc(F)cc1)[C@H](CO)N2	5.0	-4

cpd	Ecoli rRNA inh OD600	Ecoli rRNA inh RFP
1	-10	-1.6
2	5	-1.0
3	8	-0.4
4	10	-3.5
5	2	-0.8
6	9	-1.4
7	-2	-2.3
8	0	0.5
9	-9	-3.5
10	3	-2.1
11	4	8.3
12	-5.8*	7.1*
13	3	-4.9
14	10&18	2.1&-1.6
15	10	12

Additional structures
cpd	smiles	AF4-AF9 inh	Ecoli rRNA inh
16	Cc1noc(C)c1NC(=O)N(C)C[C@@H]1OCCCC[C@@H](C)Oc2ccc(NC(=O)c3ccccc3)cc2C(=O)N([C@H](C)CO)C[C@@H]1C	0.5	4
17	CC(=O)N1CCCCN2[C@@H](CO)[C@H](c3ccc(-c4ccc(F)cc4)cc3)[C@@H]2C1	-1.6	-2
18	CCNC(=O)Nc1ccc2c(c1)C(=O)N(C)[C@H]1CC[C@@H](CC(=O)NCc3ccccc3F)O[C@H]1CO2	0.9	-4
19	C[C@@H](NC(=O)[C@@H]1[C@@H](CO)[C@@H]2Cn3c(cccc3=O)[C@@H]2N1CC1CCCCC1)c1ccccc1	10	-9
20	C[C@H]1CN([C@@H](C)CO)C(=O)Cc2cc(NS(C)(=O)=O)ccc2O[C@@H]1CN(C)Cc1ccc(C(F)(F)F)cc1	8.9	3
21	O=C(c1ccccc1F)N1CC(=O)N2[C@H](C1)[C@H](c1ccc(-c3cccnc3)cc1)[C@@H]2CO	3.8	2
22	O=C(Nc1ccccc1)N1CC(=O)N2[C@H](CO)[C@H](c3ccc(C#CC4CCCC4)cc3)[C@H]2C1	2.9	-20
23	CN1C(=O)c2cc(NC(=O)C3CCCC3)ccc2OC[C@@H]2O[C@H](CC(=O)NCc3ccccc3F)CC[C@@H]21	-12	-5
24	O=C(Nc1ccccc1F)N1CC(=O)N2[C@H](CO)[C@H](c3ccc(C#Cc4ccccc4)cc3)[C@@H]2C1	-9.4	3
25	O=C(c1ccncc1)N1CC(=O)N2[C@@H](CO)[C@@H](c3ccc(-c4ccccc4F)cc3)[C@@H]2C1	2.4	0
26	CCCNC(=O)N1CC2(C1)CN(C(=O)NC(C)C)[C@H](CO)c1c2c2ccc(OC)cc2n1C	1.0	0
27	COC(=O)C[C@@H]1CC[C@@H]2[C@@H](COc3ccc(NC(=O)c4ccc(OC)cc4)cc3C(=O)N2C)O1	-2.4	3
28	N#C[C@H]1[C@H](c2ccc(C3=CCCCC3)cc2)[C@H](CO)N1C(=O)NC1CCCC1	-7.2	-1
29	COc1ccc(S(=O)(=O)N2CC[C@@H]3[C@H]2c2cc(-c4ccc(F)cc4)ccc2N(C)[C@H]3CO)cc1	-0.2	0
30	O=C(c1ccccc1)N1CC(=O)N2[C@@H](CO)[C@@H](c3ccc(C#CCC4CCCC4)cc3)[C@@H]2C1	4.4	-46

cpd	Ecoli rRNA inh OD600	Ecoli rRNA inh RFP
16	-1	-0.2
17	3	1.6
18	-4	1.8
19	-21	0.0
20	0	2.6
21	1	-1.5
22	-46	35
23	-10	1.2
24	-25	20
25	0	-2.9
26	2	-5.0
27	-1	2.5
28	-1	-1.0
29	6	-3.7
30	-61	1.3

Continuation:
cpd	smiles	AF4-AF9 inh	Ecoli rRNA inh
31	CN1C(=O)c2cc(NC(=O)C3CCC3)ccc2OC[C@H]2O[C@H](CC(=O)NCc3ccccc3F)CC[C@H]21	-10	-3
32	COc1ccccc1NC(=O)N1CC(=O)N2[C@H](CO)[C@@H](c3ccc(-c4cccc(C)c4)cc3)[C@@H]2C1	1.2	-10
33	Cc1cccc(-c2ccc([C@@H]3[C@H]4CN(C(=O)NC5CCCCC5)CC(=O)N4[C@H]3CO)cc2)c1	2.1	-16
34	C[C@@H]1CN([C@H](C)CO)C(=O)c2cc(NC(=O)Cn3cnnn3)ccc2O[C@H]1CN(C)Cc1ccc(-c2ccccc2)cc1	8.6	0
35	CCCCN(CCCC)CCCNC(=O)Cn1cc(C)c(=O)[nH]c1=O	-1.2	8
36	CO[C@@H]1CN(C)C(=O)c2ccc(NS(=O)(=O)CC(F)(F)F)cc2OC[C@H](C)N(C(=O)c2ccc3c(c2)OCO3)C[C@H]1C	-1.6	3
37	CC(C)NC(=O)N(C)C[C@H]1Oc2ccc(NC(=O)c3ccncc3)cc2C(=O)N([C@@H](C)CO)C[C@H]1C	-2.0	2
38	CCC(=O)N1CC(=O)N2[C@@H](CO)[C@@H](c3ccc(C#CCc4ccccc4)cc3)[C@@H]2C1	-3.5	-1
39	C[C@@H]1CN([C@@H](C)CO)C(=O)c2cc(NS(=O)(=O)c3cccs3)ccc2O[C@H]1CN(C)Cc1ccc(Cl)c(Cl)c1	7.9	-8
40	O=C(c1ccc(F)cc1)N1CC(=O)N2[C@@H](CO)[C@H](c3ccc(-c4ccccc4)cc3)[C@@H]2C1	-26	0
41	Cc1ccccc1-c1ccc(C2[C@@H]3CN(C(=O)C4CC4)C[C@H]2N3)cc1 (stereo partly specified)	-13&3.8	0&2
42	CO[C@@H]1CN(C)C(=O)c2ccc(NC(=O)C3CC3)cc2OC[C@@H](C)N(C(=O)C2CCCCC2)C[C@H]1C	-5.7	-2
43	O=C(c1ccc(F)cc1)N1CC(=O)N2[C@@H](CO)[C@H](c3ccc(C#CC4CC4)cc3)[C@@H]2C1	-0.8	3
44	COc1ccc2c3c([nH]c2c1)[C@H](CO)N(C(=O)NC(C)C)CC31CCN(Cc2ccccc2)CC1	13	-1
45	COc1cccc(CN2[C@H](CO)[C@@H](c3ccccc3)C23CN(C(=O)C2CCCC2)C3)c1	-1.9	1

cpd	Ecoli rRNA inh OD600	Ecoli rRNA inh RFP
31	6	0.8
32	-23	6.1
33	-38	25
34	0	4.0
35	6	-1.4
36	3	-2.0
37	10	2.4
38	1	-0.1
39	-41	9.1
40	-3	-2.2
41	8&7	3.0&-4.1
42	0	-0.7
43	4	-4.1
44	-2	-4.2
45	-11	6.1

Next part:
cpd	smiles	AF4-AF9 inh	Ecoli rRNA inh
46	Cc1ccc(S(=O)(=O)N(C)C[C@H]2OCCCC[C@H](C)Oc3ccc(NC(=O)CCC(F)(F)F)cc3C(=O)N([C@@H](C)CO)C[C@@H]2C)cc1	1.6	0
47	O=C(Cc1cccnc1)N1CC(=O)N2[C@H](CO)[C@H](c3ccc(C4=CCCC4)cc3)[C@@H]2C1	-3.0	9
48	C[C@@H]1CCCCO[C@H](CN(C)S(=O)(=O)c2ccc(Cl)cc2)[C@@H](C)CN([C@@H](C)CO)C(=O)c2cc(NC(=O)C3CCCCC3)ccc2O1	-2.5	0
49	CO[C@@H]1CN(C)C(=O)c2cc(NC(=O)Nc3cc(F)ccc3F)ccc2OC[C@@H](C)N(C(=O)c2ccccn2)C[C@H]1C	1.2	0
50	N#Cc1ccc(-c2ccc([C@@H]3[C@H]4CN(C(=O)C5CCCC5)CC(=O)N4[C@H]3CO)cc2)cc1	-12	-3
51	O=C(c1ccncc1)N1CC(=O)N2[C@@H](CO)[C@H](c3ccc(-c4ccccc4)cc3)[C@@H]2C1	-1.1	2
52	COc1ccc(-c2ccc([C@@H]3[C@H]4CNCC(=O)N4[C@H]3CO)cc2)cc1	6.8	2
53	CN(C)CC(=O)N1CC(=O)N2[C@H](CO)[C@@H](c3ccc(-c4ccc(C#N)cc4)cc3)[C@H]2C1	-2.3	1
54	COc1ccc(CN(C)C[C@@H]2OCCCC[C@H](C)Oc3ccc(NC(=O)c4ccccc4)cc3C(=O)N([C@@H](C)CO)C[C@@H]2C)cc1	7.9	-1
55	C[C@@H](NC(=O)C[C@@H]1CC[C@H]2[C@@H](COc3ccc(NC(=O)C4CCOCC4)cc3C(=O)N2C)O1)c1ccccc1	-0.4	1

cpd	Ecoli rRNA inh OD600	Ecoli rRNA inh RFP
46	-1	-0.9
47	6	-3.5
48	-5	-1.4
49	-2	1.3
50	5	2.3
51	17	0.6
52	9	-0.5
53	-8	-0.4
54	-8	-0.3
55	6	-0.6

A second format for part of the listing above:
| no. | AF4-AF9 inh | Ecoli rRNA inh | Ecoli rRNA inh OD600 | Ecoli rRNA inh RFP | SMILES |
| --- | --- | --- | --- | --- | --- |
| 41 | -13&3.8 | 0&2 | 8&7 | 3.0&-4.1 | Cc1ccccc1-c1ccc(C2[C@@H]3CN(C(=O)C4CC4)C[C@H]2N3)cc1 (stereo partly specified) |
| 42 | -5.7 | -2 | 0 | -0.7 | CO[C@@H]1CN(C)C(=O)c2ccc(NC(=O)C3CC3)cc2OC[C@@H](C)N(C(=O)C2CCCCC2)C[C@H]1C |
| 43 | -0.8 | 3 | 4 | -4.1 | O=C(c1ccc(F)cc1)N1CC(=O)N2[C@@H](CO)[C@H](c3ccc(C#CC4CC4)cc3)[C@@H]2C1 |
| 44 | 13 | -1 | -2 | -4.2 | COc1ccc2c3c([nH]c2c1)[C@H](CO)N(C(=O)NC(C)C)CC31CCN(Cc2ccccc2)CC1 |
| 45 | -1.9 | 1 | -11 | 6.1 | COc1cccc(CN2[C@H](CO)[C@@H](c3ccccc3)C23CN(C(=O)C2CCCC2)C3)c1 |
| 46 | 1.6 | 0 | -1 | -0.9 | Cc1ccc(S(=O)(=O)N(C)C[C@H]2OCCCC[C@H](C)Oc3ccc(NC(=O)CCC(F)(F)F)cc3C(=O)N([C@@H](C)CO)C[C@@H]2C)cc1 |
| 47 | -3.0 | 9 | 6 | -3.5 | O=C(Cc1cccnc1)N1CC(=O)N2[C@H](CO)[C@H](c3ccc(C4=CCCC4)cc3)[C@@H]2C1 |
| 48 | -2.5 | 0 | -5 | -1.4 | C[C@@H]1CCCCO[C@H](CN(C)S(=O)(=O)c2ccc(Cl)cc2)[C@@H](C)CN([C@@H](C)CO)C(=O)c2cc(NC(=O)C3CCCCC3)ccc2O1 |
| 49 | 1.2 | 0 | -2 | 1.3 | CO[C@@H]1CN(C)C(=O)c2cc(NC(=O)Nc3cc(F)ccc3F)ccc2OC[C@@H](C)N(C(=O)c2ccccn2)C[C@H]1C |
| 50 | -12 | -3 | 5 | 2.3 | N#Cc1ccc(-c2ccc([C@@H]3[C@H]4CN(C(=O)C5CCCC5)CC(=O)N4[C@H]3CO)cc2)cc1 |
| 51 | -1.1 | 2 | 17 | 0.6 | O=C(c1ccncc1)N1CC(=O)N2[C@@H](CO)[C@H](c3ccc(-c4ccccc4)cc3)[C@@H]2C1 |
| 52 | 6.8 | 2 | 9 | -0.5 | COc1ccc(-c2ccc([C@@H]3[C@H]4CNCC(=O)N4[C@H]3CO)cc2)cc1 |

Only part of the results is shown. The share of hits here may be higher or lower than overall.
